# rRNA inh HTS: selective bacterial rRNA inhibition in E. coli; E. coli WT GFP vs humanized-ribosome RFP mutants, fluorescence, 24 h; active compounds read low; DMSO median 0, no signal -100; GFP signal change (wild-type ribosome), % (concentration not given with the values); actives 1.6% (n = 350,000);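 active = significant combined selectivity score with lowered wild-type GFP, culture density cut under 30%, mutant RFP and density less affected; inactive = any of these conditions unmet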; note: one replicate is shown; some compounds called inactive have numbers as strong as hits
# Beta cell apopt: beta cell apoptosis inhibition; INS-1E cytokine-induced death, ATP luminescence, 48 h; percent of positive-control rescue, neutral wells zero; protection from apoptosis, % (no concentration beside the values); actives 0.8% (n = 300,000);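 active = all replicates at 75% or more, or half of them and the mean; inconclusive = half reach 75% but not the mean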;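 note: 0% = cytokine-treated negative control wells and 100% = positive control rescue; higher means more ATP so stronger rescue from cytokine killing; wells of about 40 µL received 100 nL stock; the first replicate is given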
# RanGTP-Impb inh: disruptors of Ran-importin-beta complex formation – biochemical, FRET, CFP-Ran, YFP-importin-beta, homogeneous, primary screen; actives 1.1% (n = 300,000); inhibition, % (test concentration not listed); cell-free CFP-Ran/YFP-importin-beta FRET ratio;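 active = most replicates above 15%; inconclusive = exactly half above 15%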;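 note: 0% = DMSO wells and 100% = Ran loaded with GDP instead of GTP; wells of about 40 µL received 100 nL stock; the first replicate is given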
# T cruzi repl: blocks replication of Trypanosoma cruzi; AID 1885; T. cruzi beta-gal in NIH3T3, luminescence, 90 h; actives 1.4% (n = 300,000); inhibition, % (concentration not given with the values);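 active = mean inhibition across valid replicates above about 55%, limit read from the data; inconclusive = mean below that limit but half or more replicates reach it; inactive = mean below it, under half of replicates reach it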;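 note: signal also drops with host cell toxicity which is not excluded here; 0% = plate median of DMSO wells and 100% = zero luminescence signal; higher percent means less beta-gal luminescence so fewer parasites; stock transfer was 50 nL into about 50 µL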
# A1 inh: inhibitors of the anti-apoptotic protein A1, read as caspase activation. MEF A1-2A-BIM cells, Caspase-Glo 3/7 luminescence, 3 h; percent of clofoctol response, vehicle zero. caspase activation, % (no concentration beside the values). actives 0.066% (n = 330,000);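 active = over half of replicate activation scores above 10%, or exactly half above 10 with the replicate mean above 10; inconclusive = replicate mean below 10 yet half the replicates above 10; inactive = over half of replicates below 10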;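 note: wells of about 30 µL received 50 nL stock; many hits fall short of the cut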
# Vif A3G: inhibitors of Vif binding to APOBEC3G peptide, primary screen, biochemical, TR-FRET, GST-Vif 1-94, biotin-A3G peptide, dose response retest (AID 1117319). TR-FRET GST-Vif / biotin-A3G peptide binding; higher % means a stronger effect; test concentration not given here; strong numbers were not always called active. one-dose inhibition, %; IC50 in µM for titrated hits. actives 0.57% (n = 260,000);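 active = above the screen mean plus three standard deviations and confirmed in dose response; inconclusive = results disagree or hit not tested in dose response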;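 note: Vif residues 1-94 fused to GST binding biotinylated APOBEC3G peptide 110-148; 0% = full assay without inhibitor and 100% = GST in place of GST-Vif; retest series ran down from 100 µM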
# AF4-AF9 inh: MLL-AF4/AF9 protein interaction inhibition; AlphaScreen, biotin-AF4 peptide binding to FLAG-AF9; inhibition, % at 10 µM; actives 0.47% (n = 350,000);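 active = every replicate reaching a set inhibition limit, whatever the replicate mean, cut at about 25% in these data; inconclusive = mean inhibition reaches that limit but some replicates miss it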;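 note: 0% = plate neutral control median and 100% = total signal loss; the record names both 10 and 1 µM as test concentration; the first replicate is given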
# Target sequence (P42568 whole entry, looked up): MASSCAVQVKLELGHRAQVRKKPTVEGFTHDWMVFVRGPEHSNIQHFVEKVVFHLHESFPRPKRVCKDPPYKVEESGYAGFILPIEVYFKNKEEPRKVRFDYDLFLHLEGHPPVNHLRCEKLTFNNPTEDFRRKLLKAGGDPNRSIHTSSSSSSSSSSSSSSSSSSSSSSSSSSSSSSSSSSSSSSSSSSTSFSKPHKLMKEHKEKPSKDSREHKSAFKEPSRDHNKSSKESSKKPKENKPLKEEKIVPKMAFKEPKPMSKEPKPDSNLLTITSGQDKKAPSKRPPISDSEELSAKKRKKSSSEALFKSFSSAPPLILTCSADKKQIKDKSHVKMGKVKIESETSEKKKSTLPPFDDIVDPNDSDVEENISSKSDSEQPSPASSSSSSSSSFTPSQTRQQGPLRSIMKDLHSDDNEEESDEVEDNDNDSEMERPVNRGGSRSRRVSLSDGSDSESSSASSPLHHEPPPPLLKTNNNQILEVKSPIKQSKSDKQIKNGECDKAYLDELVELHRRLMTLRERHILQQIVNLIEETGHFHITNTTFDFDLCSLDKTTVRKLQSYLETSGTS
# Calb FLC: affects C. albicans growth with fluconazole | C. albicans CaCi-2 (fluconazole-resistant clinical isolate) + fluconazole, Alamar Blue growth, 48 h | growth inhibition, % (concentration not given with the values) | actives 0.57% (n = 300,000) | AID 1979;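 active = most replicates above 75%; inconclusive = exactly half above 75%; inactive = most below 75%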;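 note: all wells also contain fluconazole at 8 µg/ml as a sub-toxic cotreatment; 0% = median of DMSO wells and 100% = median of geldanamycin control wells; wells of about 8 µL received 7.5 nL stock; the first replicate is given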
# rRNA inh HTS OD600: recorded beside rRNA inh HTS, whose call it bears; OD600 change, %; measured here: OD600 growth;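 optical density of the mix in the first replicate; 0 = DMSO median and -100 = no signal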
# rRNA inh HTS RFP: also measured in rRNA inh HTS; calls as there; RFP signal change, %; measured here: RFP humanized mutant strains;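 first replicate; 0 = DMSO median and -100 = no signal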
# An asterisk follows results filed as active; ? = inconclusive; . = no result given; & = joins results of further samples.
SMILES,rRNA inh HTS,rRNA inh HTS OD600,rRNA inh HTS RFP,Beta cell apopt,RanGTP-Impb inh,T cruzi repl,A1 inh,Vif A3G,AF4-AF9 inh,Calb FLC
O=C(Cn1c(=O)[nH]c2sc3c(c2c1=O)CCCC3)NCC1CCCO1 (stereo unspecified),6,8,4.9,0,-1.4,-16,-1.0,.,-2.2,-5
O=C(N/N=C/c1ccc2c(c1)OCO2)c1cccs1,-2,9,-2.9,8,?,-11,-8.5,-1%,1.2,0
O=C(Nc1ccc(Br)cc1)c1ccc(N2C(=O)C3CC=C(Cl)CC3C2=O)cc1 (stereo unspecified),.,.,.,-4,-0.3,-1,-0.7,1%&-6%,.,-2
C=CCc1ccc(OC(=O)c2ccccc2)c(OC)c1,-5,15,8.3,0,?,-16,-0.3,.,2.1,-4
COC(=O)c1ccc2ccccc2n1,.,.,.,-3,-4.8,-5,-2.0,.,.,4
COc1ccc(S(=O)(=O)NCC2CCCN(C(=O)c3cccnc3)C2)cc1 (stereo unspecified),8,3,-4.5,2,-4.4,-2,0.2,2%,0.4,-2
Cc1cc(F)ccc1S(=O)(=O)Nc1nc2ccccc2nc1Cl,7,3,-3.7,3,5.6,-3,0.6,.,8.5,-8
O=C(NC(=O)c1ccccc1)OCC(F)(F)F,.,.,.,-2,-0.4,1,-1.0,1%,.,-12
COC(=O)[C@H](Cc1ccccc1)NC(=O)C1(OC(C)=O)CC(OC(C)=O)C(OC(C)=O)C(OC(C)=O)C1 (stereo partly specified),4,0,1.5,0,3.7,-17,-0.3,2%,0.6,9
COc1ccccc1NC(=O)N1CCN(S(C)(=O)=O)CC1,14,20,-1.1,.,-0.3,-1,-0.7,.,-7.3,-22
Fc1ccc(NC(=S)N2CCOCC2)c(F)c1,3,13,-0.4,-2,-2.9,1,-0.1,-14%,-3.1,-6
CN1CCN(C(=O)CCN2C(=O)/C(=C\c3ccc(Cl)cc3Cl)SC2=S)CC1,-21,-19,8.1,-56,-0.1,27,-0.3,-1%,5.1,14
Cc1ccc(C(=O)N/C(=C\c2cn(C)c3ccccc23)C(=O)OCCN(C)C)cc1,.,.,.,-5,-0.5,4,0.3,-2%,3.4,2
O=C(NCC(=O)N(CCN1CCOCC1)C(C(=O)NC1CCCC1)c1cccs1)c1ccco1 (stereo unspecified),.,.,.,5,-0.8,0,-0.8,-2%,.,-3
CCOc1ccc(C(=O)Nc2cccc(SC)c2)cc1,0,6,-2.3,-2,1.1,-3,-6.3,11%,1.6,5
CCN(CC(=O)Nc1ccc(NC(C)=O)cc1)C(=O)c1ccc(=O)[nH]c1,20,12,1.5,-4,0.1,-12,0.0,2%,-0.5,-5
COCCn1cnnc1SCC(=O)Nc1ccc(N2CCCCC2)cc1,4,5,7.6,0,.,.,-0.3,11%,-4.8,.
COc1ccc(-n2nc([N+](=O)[O-])c(=NCCCN3CCCC3=O)n2O)cc1,-24,-40,-9.1,3,1.6,49,0.1,8%,-17,0
COCCNc1nc2nonc2nc1N1CCC(N(C)C)C1 (stereo unspecified),18,12,0.8,0,-2.2,15,0.2,7%,0.0,-5
CCCCOC(=O)CCc1c(C)[nH]c(=S)[nH]c1=O,20,14,2.8,1,?,-11,0.2,3%,.,7
Cc1ccnc(N2CCC(C(=O)NNC(=O)c3ccccc3C)CC2)n1,11,8,1.5,-6,6.3,-2,0.5,77%,-0.5,5
O=C(NC1CCCC1)c1cnc2n(c1=O)CCS2,.,.,.,0,-0.1,-15,0.2,?,.,-9
COc1cccc(CSc2nc3ccccc3[nH]2)c1,.,.,.,0,-3.2,-9,-8.2,30%,-0.2,0
COc1ccc(N2CC(C(=O)N3CCOCC3)CC2=O)cc1 (stereo unspecified),13,14,1.8,.,1.7,-8,0.1,.,0.1,3
COc1ccc(CNC(=O)c2ccc[nH]2)cc1,-6,4,-4.9,-4,-0.4,-17,-0.4,-3%,1.9,-18
# Next records
SMILES,rRNA inh HTS,rRNA inh HTS OD600,rRNA inh HTS RFP,Beta cell apopt,RanGTP-Impb inh,T cruzi repl,A1 inh,Vif A3G,AF4-AF9 inh,Calb FLC
O=C(CSc1ccc(Cl)cc1)Nn1cnnc1,.,.,.,-5,1.2,23,1.0,18%,.,2
C=CCN(C(C)=O)C1CC(=O)N(c2ccc(OCCC)cc2)C1=O (stereo unspecified),.,.,.,.,0.3,0,-0.4,30%,.,-9
O=C(NCc1cccs1)c1ccc(N2CCCCC2)nc1,.,.,.,-2,5.9,-11,-0.9,-3%,.,-2
Cc1ccc2nc(SCc3ccc([N+](=O)[O-])cc3)[nH]c2c1,.,.,.,-5,1.9,34,0.7,1%,.,-7
COc1cc(C(=O)n2nc(C)cc2C)cc(OC)c1OC,.,.,.,-3,5.4,-8,-0.1,2%,.,-7
COC(=O)c1ccc(NC(=O)CN2CCN(CC#N)CC2)cc1,-1,-3,-2.2,.,3.0,4,0.1,2%,-2.3,3
Cc1cc(C(F)F)n2ncc(C(=O)NCc3ccccc3)c2n1,.,.,.,1,1.3,5,-0.7,18%,.,0
COCc1cc(=O)n2[nH]c(N)nc2n1,18,11,4.5,-5,2.2,-9,0.0,16%,0.5,-3
Cc1cccc(CN2CCCC(C(=O)Nc3ccccc3Oc3cccnc3)C2)c1 (stereo unspecified),0,-3,2.2,-2,-0.3,49,2.4,2%,1.9,-4
O=C(Nc1ccc(C(=O)NC2CCCCC2)cc1)c1cccnc1,8,8,-0.5,100*,4.1,-13,0.3,3%,-2.6,-2
COc1ccc(OC)c(C2NC(=O)NC(C)=C2C(=O)Nc2ccc(C)cc2)c1 (stereo unspecified),.,.,.,-6,-5.3,-12,1.0,68%,.,3
Cc1ccc(N2N=C(c3ccc(F)cc3)CC2c2ccco2)cc1 (stereo unspecified),-6,1,15,-4,-1.2,-6,-0.1,6%,-0.1,2
CC1CN(c2nc(Nc3ccccc3F)nc(N)c2[N+](=O)[O-])CC(C)O1 (stereo unspecified),-8,-24,2.5,-5,?,-4,1.9,6%,7.0,-9
O=C(CNC(=O)c1ccc(F)cc1)Nc1ccccc1C(F)(F)F,4,10,-1.6,-8,-3.7,9,1.5,?,-2.3,-1
COc1ccccc1NC(=O)COC(=O)c1cnc(C)cn1,27,17,0.4,-2,2.2,-6,?,-2%,-1.5,19
COc1ccc(NC(=O)CSc2nnc(-c3cccs3)n2N)cc1S(N)(=O)=O,12,10,-1.8,-4,.,.,0.9,-7%,-1.7,.
Cc1cccc(-c2noc(CCCC(=O)NC3CCCCC3)n2)c1,2,9,-1.0,2,1.7,7,1.3,.,0.3,4
Cc1noc(C)c1S(=O)(=O)N1CCCC(C(=O)NCCc2ccccc2)C1 (stereo unspecified),.,.,.,4,-0.4,-4,0.4,-2%,.,-4
Cc1cc(C)c(NC(=O)COC(=O)c2cc([N+](=O)[O-])ccc2N2CCOCC2)c(C)c1,.,.,.,1,0.7,3,-0.9,3%,-1.0,-5
C=CCOc1c(CCC)cc(CCC)cc1C(N)=O,-13,-8,0.5,0,2.0,8,0.1,-4%,2.1,10
COc1cccc(/C=C2\SC(=S)N(C(Cc3ccccc3)C(=O)O)C2=O)c1 (stereo unspecified),-13,-12,-3.6,-8,1.4,-8,-0.1,4%,-3.5,2
N/C(CS(=O)(=O)c1ccc(F)cc1)=N\O,8,6,-2.3,-8,0.0,-7,1.4,0%,-9.5,12
CSCCC(NC(=O)c1ccc(Cl)cc1)C(=O)OCC(C)=O (stereo unspecified),19,11,-6.2,-5,2.4,-3,0.2,-2%,-2.4,-14
CC(C)C(Sc1nc(-c2ccccc2)cc(-c2ccccc2)c1C#N)C(=O)O (stereo unspecified),-56,-74,-17,0,0.0,18,-0.9,.,-3.2,87*
O=C(Nc1nnc(C(F)(F)F)s1)c1ccc(Br)s1,-54,-79,-32,68,7.3,5,-5.6,-6%,-1.4,?
# Later entries
SMILES,rRNA inh HTS,rRNA inh HTS OD600,rRNA inh HTS RFP,Beta cell apopt,RanGTP-Impb inh,T cruzi repl,A1 inh,Vif A3G,AF4-AF9 inh,Calb FLC
Cc1cccc(Nc2ccccc2)c1,.,.,.,-3,1.2,1,-0.4,2%,.,-1
N#Cc1c(-c2ccc(F)cc2)c2c([nH]c1=O)-c1ccccc1OC2,.,.,.,-2,101*,-12,-1.5,-9%,-0.3,-14
COc1ccccc1C1CCN(Cc2ccccc2Cl)CC1,14,-4,9.9,6,-1.8,14,0.3,-2%,7.2,0
O=C(CC1SC(=O)NC1=O)Nc1ccc(Cl)cc1 (stereo unspecified),-6,-8,-2.3,5,3.9,-10,-0.4,4%,-2.0,-12
CC(C)c1ccc(Nc2nc(Cl)nc(NCc3ccco3)n2)cc1,5,5,0.3,20,1.2,37,0.2,?,1.7,-2
COC(=O)c1c(NC(=O)CSc2nnc3ccccn23)sc2c1CCC2,-20,-34,-5.0,-4,-3.8,-1,-0.3,.,4.3,2
Nc1ncnc(Oc2ccccc2F)c1[N+](=O)[O-],15,6,0.1,-8,-2.1,-12,-0.4,4%,-5.8,9
CCOC(=O)C(CCC#N)(CCC#N)C(=O)OCC,.,.,.,2,1.8,1,0.5,-1%,.,-6
O=C(c1cccc(Br)c1)N1CCCC1,.,.,.,-7,1.9,-16,0.0,4%,.,-5
c1csc(C(c2nnnn2C2CCCC2)N2CCOCC2)c1 (stereo unspecified),.,.,.,-7,4.6,-13,0.3,-2%,.,-3
O=C(COC(=O)Cc1cccc(C(F)(F)F)c1)Nc1ccc2[nH]c(=O)[nH]c2c1,-2,-3,-1.3,.,-3.8,-11,0.4,3%,4.7,3
COc1ccc(CCNc2ncnc3[nH]ncc23)cc1OC,.,.,.,-6,0.0,-14,0.5,?,.,-7
CN(CCNC(=O)C1CCC(=O)N(Cc2ccc(Cl)cc2)C1)CCc1ccccc1 (stereo unspecified),13,10,3.2,5,6.3,31,-0.2,.,3.6,7
CCn1cc(S(=O)(=O)c2ccc(Cl)cc2)c(=O)c2cc(OC)ccc21,-8,-3,1.2,-3,1.4,-2,-0.7,4%,-1.0,0
COc1ccc(-n2c(SCC#N)nnc2-c2cccnc2)cc1,.,.,.,2,-0.3,-11,-0.6,0%,.,-1
CCCC(C)NC(=O)c1cc(C(=O)OC)cc([N+](=O)[O-])c1 (stereo unspecified),.,.,.,0,0.3,-1,-0.2,-4%,.,4
CCn1c2ccccc2c2cc(NC(=O)C(C)OC(=O)c3ccc(NC(=O)CC#N)cc3)ccc21 (stereo unspecified),5,7,-1.8,30,.,.,-0.4,5%,1.5,.
CSc1c(C#N)sc(=S)n1-c1ccc(C)cc1,-31,-48,-6.6,0,4.1,-6,0.2,-1%,9.8,-2

# Assay outcomes from PubChem.

# Only part of the results is shown; rates above refer to the full screens.
